Tg IFNy HTS = T. gondii growth inhibition with IFN-gamma, primary screen, cell-based; activity change, negative = inhibition, %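 (about 20 µM by stock and volumes)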; actives 3.8% (n = 69,000); Toxoplasma gondii growth in IFN-gamma-treated host cells; hits give low values; reference of the scale not given here;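 active means below -70%; inconclusive means fit judged invalid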;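 further: host cells are HeLa cells infected with Toxoplasma gondii; parasite growth read as luciferase light; one replicate is shown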
* = called active by the depositor; ? = inconclusive; & = joins results of further samples. These rows are one share of the data. The share of hits here may be higher or lower than overall.

compound	Tg IFNy HTS
COC(=O)c1ccc(NC(=O)CSc2nnc3c(n2)[nH]c2ccc(F)cc23)cc1	-70*
CC(C)CN1CCC(NCCSc2ncn[nH]2)CC1	33
COc1cc(C)ccc1-c1c(-c2ccccc2)ncn1C(C)Cc1cnccn1 (stereo not drawn)	-4
COC[C@H]1CCC2C(CCN2C(=O)CCc2ccccc2)O1 (stereo partly drawn)	-25
O=C(O)Cn1nnc(-c2ccccc2)n1	5
CCc1ccccc1-c1ncnc2[nH]ccc12	14
Cc1cccc(S(=O)(=O)N2CCC3(CC2)Nc2ccc(Cl)cc2-n2cccc23)c1	-12
COc1ccc(OC)c(-c2nccn2-c2ccc3nc(C)[nH]c3c2)c1	-18
Cc1noc(=O)c(C)c1-c1ccc(Cl)c(C(=O)NC(C)C2CC3CCC2C3)c1 (stereo not drawn)	-22
CC(C)(C)C(=O)Nc1ccc(-c2nc(-c3ccccc3)co2)cc1	210
O=C(NCc1ccccc1C(F)(F)F)c1cn2c(n1)CCCC2	6
Cc1ccc(NC(=O)c2c(O)c3ccccc3[nH]c2=O)cc1Cl	121
COC(=O)c1c(C)[nH]c(C)c1-c1ccn[nH]1	15
CCn1cc2c(n1)C(COC)CN(C(=O)c1cscn1)C2 (stereo not drawn)	4
CCN1Cc2ccccc2C2(CCN(C(=O)c3cnc[nH]3)CC2)C1	5
Cn1cccc1C(=O)N1CCC2(CC1)CC(c1cccnc1)C(=O)N2 (stereo not drawn)	88
O=C(NCc1nnnn1-c1ccccc1)c1ccccc1C1CCNC1 (stereo not drawn)	2
Cc1ccc(CNC(=O)C2CC3CCC2(C)CC32NC(=O)c3ccccc3N2)o1 (stereo not drawn)	-3
COCC(=O)N1CCCN(Cc2cccc(OC)c2O)CC1	6
CCN1CC2(CCN(Cc3cnn(C)c3)CC2)COc2ccccc2S1(=O)=O	-8
CCc1cc(C(=O)N(Cc2ccccc2)Cc2nc(N(C)C)ncc2-c2ccccn2)no1	47
CN(C)Cc1cnc2n1CCN(c1ncc(F)cn1)CC2	-47
CN(C)CCN1Cc2nnn(C)c2C(COCc2ccccc2)C1 (stereo not drawn)	-3
Cc1nccn1-c1cccc(C2CCN(C(=O)c3ccc(F)cc3)CC2)n1	7
CS(=O)(=O)N1CCc2c(cnc(-c3cccnc3)c2C(=O)O)C1	3
CCC(C(=O)N1CC=CC1)n1cc(C(C)=O)c2ccccc21 (stereo not drawn)	-3
COc1ccc(CN2CCC(c3nc4ccc(N5CCCC5)cn4n3)CC2)cc1	3
Cc1ccccc1-c1nc(Cn2nnc(C(=O)Nc3ccc(Br)cc3)c2C)c(C)o1	3
C[C@@H]1CN([C@@H](C)CO)S(=O)(=O)c2ccc(C#CC3(O)CCCC3)cc2O[C@H]1CN(C)C(=O)Nc1cccc(F)c1	-92*
CCSc1cc(C)nc(NC(=O)CC)n1	-3

Three entries drawn at random from those above, as already listed:
compound	Tg IFNy HTS
CN(C)Cc1cnc2n1CCN(c1ncc(F)cn1)CC2	-47
CCN1CC2(CCN(Cc3cnn(C)c3)CC2)COc2ccccc2S1(=O)=O	-8
Cc1ccccc1-c1nc(Cn2nnc(C(=O)Nc3ccc(Br)cc3)c2C)c(C)o1	3

Additional entries follow:
compound	Tg IFNy HTS
CCc1ccc(NC(=O)CN2CCC3(CC2)N=C(c2ccc(C)c(C)c2)C(=O)N3)cc1	80
Cc1nc(OCC(=O)Nc2cc(F)ccc2C)c2ccccc2n1	-13
Cc1cccc(S(=O)(=O)N2CCC(C(=O)NCCc3csc(C)n3)CC2)c1	24
CCC(=O)N1CCCCC1c1nnc(C2CCN(S(=O)(=O)CC)CC2)o1 (stereo not drawn)	-1
CCC1(C)CC(CCN(Cc2ccccc2)C(C)=O)(c2ccc(OC)cc2)CCO1 (stereo not drawn)	-19
CSc1n[nH]c(NC(=O)CSc2nc(C)cc(C)n2)n1	-47
CNC(=O)c1cc2c(nc1N(C)C)CCN(Cc1c(C)noc1C)CC2	115
COc1cccc(CC(=O)N2CC[C@@H]3N(C)CC[C@@]3(C(=O)N(C)C)CC2)c1	4
O=C(C[C@H]1CC[C@H]2[C@@H](COC[C@@H](O)CN2CCC(F)(F)F)O1)NCc1ccc2c(c1)OCO2	-21
CCCC(=O)NCCc1sc(-c2ccc(F)cc2)nc1C	111
O=C(CN1C(=O)CCc2cc(S(=O)(=O)N3CCCCC3)ccc21)NC1CCCc2ccccc21 (stereo not drawn)	-13
CCCc1cc(C(=O)N2CCC(c3nn(C)c(=O)n3CC)CC2)cs1	-2
Cn1ncc2c1NC(=O)CC2c1cn(-c2ccccc2)nc1-c1ccccc1 (stereo not drawn)	1
CC(C)NC(=O)N1CCc2ncc(CN(C)Cc3ccco3)n2CC1	-48
COc1ccc(S(=O)(=O)NCCc2csc(-c3ccc(F)cc3)n2)cc1OC	24
CCn1c(-c2cc(NC(=O)c3cncc(Br)c3)n[nH]2)cc2ccc(OC)cc21	-85*
O=Cc1ccccc1O[C@@H]1O[C@H](CO)[C@H](O)[C@@H](O)[C@H]1O	10
O=C(c1cccc2ccccc12)C1CCCN(C(=O)CCN2CCCO2)C1 (stereo not drawn)	14
Cc1ccc(Nc2nc(C(=O)NCCc3c(C)noc3C)nc3ccccc23)cc1	-18
CC(C)c1noc(-c2cc(=O)n(CC(=O)Nc3ccc4c(c3)OCCO4)c3ccccc23)n1	-7
CCOC(=O)c1c(C)n(C)c2ccc(O)cc12	15&-7
O=C(c1csc(-c2ccc(N3CCSCC3)nc2)n1)N1CCC2(CC1)OCCO2	-16
COc1ccccc1-c1nc(CN(C)S(=O)(=O)c2ccc(C)c(C)c2)c(C)o1	-44
CCOCC1CN(C(=O)c2cscn2)Cc2cn(CC)nc21 (stereo not drawn)	-6
COc1cc(C)c(C)cc1S(=O)(=O)NCCc1csc(-c2ccc(Cl)cc2)n1	-12
CCOC(=O)c1nc(N(CCC(=O)OC)c2ccccc2)c2ccccc2n1	-26
CC(=O)N1CC(=O)N(c2cnn(C)c2)CC12CCN(CC1CCOCC1)C2 (stereo not drawn)	-39
CC(C)(C)[S@@](=O)N1Cc2cc(C(=O)N[C@H]3CCN(Cc4ccccc4)C3)nc(-c3cccc(-c4cccnc4)c3)c2[C@H]1CCO	-45
COc1ccccc1CNC(=O)C[C@H]1CC[C@H]2[C@@H](COC[C@@H](O)CN2Cc2ccc3c(c2)OCO3)O1	-26
COCCN1C[C@H]2CN(Cc3nccn3C)C[C@H]2C1=O	53

An excerpt of these results, field by field:
Cn1ncc2c1NC(=O)CC2c1cn(-c2ccccc2)nc1-c1ccccc1 (stereo not drawn)
  Tg IFNy HTS: 1
CC(C)NC(=O)N1CCc2ncc(CN(C)Cc3ccco3)n2CC1
  Tg IFNy HTS: -48
COc1ccc(S(=O)(=O)NCCc2csc(-c3ccc(F)cc3)n2)cc1OC
  Tg IFNy HTS: 24
CCn1c(-c2cc(NC(=O)c3cncc(Br)c3)n[nH]2)cc2ccc(OC)cc21
  Tg IFNy HTS: -85*

Continuation:
compound	Tg IFNy HTS
Nc1cc(C(Cl)=C(Cl)Cl)c(S(N)(=O)=O)cc1S(N)(=O)=O	16
Cc1cccc(NC(=O)N2CCn3cnc(COCC4CC4)c3C2)c1	108
COc1ccc(NC(=O)N(C)C[C@@H]2Oc3ccc(NC(=O)CCN4CCOCC4)cc3C(=O)N([C@@H](C)CO)C[C@@H]2C)cc1	2
C[C@H](CO)N1C[C@H](C)[C@H](CN(C)Cc2cccc(C(F)(F)F)c2)OCc2ccccc2-c2c(n(C)c3ccccc23)C1=O	-29
c1cncc(COC2CCCN(Cc3ccc(-c4ccn[nH]4)o3)C2)c1 (stereo not drawn)	8
CCN1CCN(Cc2c(C)nn(C)c2OC)CC(Cc2ccccc2-c2ccccc2)C1=O (stereo not drawn)	8
Cc1cc(C)cc(C(=O)N2CCC[C@@H]2C(=O)NCCc2csc(-c3ccccc3)n2)c1	14
Cc1ccc(C(=O)NCCCNC(=O)c2cccc(Cl)c2)cn1	-4
CC(C)Cn1cnc2nnc3ccc(C(=O)C4CC4)cc3c21	4
COCC(=O)N1[C@@H](C#N)[C@H](c2ccc(C#CCC3CCCC3)cc2)[C@@H]1CO	-43
Cc1nc(CN(C)Cc2cccc(C(=O)Nc3cccnc3)c2)cs1	1
COc1cc2c(cc1CN1CCCCC1CN1CCOCC1)OCO2 (stereo not drawn)	70
N#Cc1cccc(NC2COC3(CCN(C(=O)NC4CC4)C3)C2)n1 (stereo not drawn)	-36
COc1ccccc1CCCNc1cc(C(C)Cn2nc(C)c(C)c2C)nc(C)n1 (stereo not drawn)	-11
CCC(c1cccnc1)N(C)Cc1ccc(C(F)(F)F)nc1 (stereo not drawn)	-8
Cc1ccc(CN2C[C@H](OCCCn3cccn3)[C@@H]3OCCC[C@@H]32)o1	109
CCn1cc(C(=O)N(C)Cc2snnc2C)c(C)n1	4
CO[C@H](CN(C)S(=O)(=O)c1ccc(C)cc1)[C@@H](C)CN([C@H](C)CO)S(=O)(=O)c1cccc(Cl)c1	-6
Cc1nnn(C23CC4CC(CC(CC(=O)O)(C4)C2)C3)n1	15
CC(C)(C)OC(=O)N1CCCN(C(=O)Nc2ccc(C(F)(F)F)cc2)CC1	-86*
Cc1cc(C(=O)N2CC[C@](O)(c3ccccc3)[C@H](N3CCCC3)C2)n[nH]1	-14
CCOC(=O)N1CCC(N2CCC3(CCNCC3)C2)CC1	-5
C=CCNc1ccccc1C(=O)NC(C)C(=O)Nc1cc(F)ccc1C (stereo not drawn)	15
O=C(c1cn2cc(Cl)ccc2n1)N1CC[C@@H](c2ccc(F)cc2)[C@H](O)C1	-26
Cc1ccc2[nH]c(=O)c(-c3nc(-c4cccs4)no3)c(O)c2c1	58
Cn1ncc(Br)c1NC(=O)c1ccco1	-4
CCOCCn1c(C(C)O)nc2ccccc21 (stereo not drawn)	-1
O=C(c1ccc(Cl)cc1)C1CCCN(C(=O)/C=C/c2ccccn2)C1 (stereo not drawn)	10
COc1ccc2c3c([nH]c2c1)[C@@H](CO)N(S(C)(=O)=O)CC31CCN(CC2CCCC2)CC1	-107*
CCOC(=O)c1[nH]c(C)c(CN(Cc2ccc(OC)cc2)C(=O)c2cc3ccc(OC)cc3[nH]2)c1C	32

(further entries)
compound	Tg IFNy HTS
CC1(C)CC(=O)c2c(NCc3ccco3)sc(C#N)c2C1	-8
CN(C)[C@@H]1c2ccccc2[C@@H]2CN(Cc3ccsc3)C[C@@H]12	-11
Cc1ccc(-c2ccccc2[C@@H]2[C@H](C#N)N(C(=O)c3cccc(F)c3)[C@H]2CO)cc1	-24
O=C(c1ccn(-c2ccc3ccc(-c4ccncc4)cn23)n1)N1CCCCC1	-33
CCc1nc(C)c(C(=O)N2CCC(O)(CN(C)C)C2)o1 (stereo not drawn)	-1
COc1ccc(OCc2nnc(SCC(=O)Nc3ccc4ccccc4c3)o2)cc1	62
O=C(Nc1ccccc1OCCCc1ccccc1)c1ccccn1	5
COCCNC[C@@H]1[C@H](c2ccccc2)[C@H](CO)N1c1nc(C)c(C)s1	-20
Cn1ccnc1SCC(=O)Nc1ccccc1N1CCN(S(C)(=O)=O)CC1	41
c1ccc(-c2nnc(-c3ccccn3)nc2-c2ccccc2)cc1	-103*
CCc1nc2ccccc2n1Cc1ccc(OC)c(OC)c1	6
Cc1noc(C)c1S(=O)(=O)N(C)C[C@@H]1OCCCC[C@H](C)Oc2ccc(NC(=O)CCC(F)(F)F)cc2C(=O)N([C@@H](C)CO)C[C@H]1C	149
COCC(=O)N1CCCN(C/C(C)=C/c2ccccc2)CC1	-49
CN(C(=O)c1nccc2ccccc12)C1CCCN(C(=O)CNS(C)(=O)=O)CC1 (stereo not drawn)	7
Cc1ccc(S(=O)(=O)N(C)C[C@H]2Oc3cc(C#CC4CCCC4)ccc3S(=O)(=O)N([C@@H](C)CO)C[C@@H]2C)cc1	?
CCNC(=O)C1CCN(C(=O)CCSCc2ccc(F)cc2)C1 (stereo not drawn)	-4
O=C(NC1CCOC2(CCN(Cc3ccccc3F)CC2)C1)C1CC1 (stereo not drawn)	4
c1ccc(-c2ccc(C(c3ccccc3)n3ccnc3)cc2)cc1 (stereo not drawn)	-67&-68&-50
CC(=O)N1CCCn2nc(C(=O)NCC3(CO)CCCC3)cc2C1	9
O=C(c1ccco1)N1CCN(C(=O)C2CC(=O)N(c3ccc(Cl)cc3)C2)CC1 (stereo not drawn)	-37
COc1ncc(-c2cc(NCCN(C)C)nc3[nH]ccc23)c(OC)n1	1
O=C(NCC[C@@H]1CC[C@H](NC(=O)c2ccccc2F)[C@@H](CO)O1)c1cnccn1	-1
Cc1ccc2cc(CO)c(Cl)nc2c1	-5
Cc1ccc(S(=O)(=O)NCCc2csc(-c3ccc(F)cc3)n2)cc1	-38
Cc1nnsc1C(=O)OCc1cc(F)cc(F)c1	-77*
CCN1c2cc(C)ccc2-n2cccc2C12CCN(S(=O)(=O)c1cc(OC)ccc1OC)CC2	-103*
CC(C)CC(O)C(=O)NCc1ccc2sccc2c1 (stereo not drawn)	-43
CC(C)Cc1cc(C(=O)N[C@@H]2c3ccccc3C[C@@H]2O)n(C)n1	-6
O=C(O)c1ccc2c(c1)n(Cc1ccc(C(F)(F)F)nc1)c(=O)n2CC1CC1	-4
CN1C(=O)COc2ccc(C(=O)Nc3nnc(CCc4ccccc4)s3)cc21	-7

Screening data deposited in PubChem BioAssay by Broad Institute.
